Screening data as filed in PubChem BioAssay.
GIV-Gai inh: inhibitors of GIV peptide binding to Galpha-i3, primary screen, biochemical, fluorescence polarization, FITC-GIV GBA peptide, rat Galphai3. Guanine nucleotide-binding protein G(i) subunit alpha-3 (Rattus norvegicus), P08753. 90 min; stronger effect = lower value; scaled: aluminum fluoride 0%, vehicle 100%. percent of control (FP), % (test concentration not listed). 210,000 compounds, 0.42% hits. AID 1224905, 2016;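 active = replicate mean at 85% of control or lower, very high polarization wells dropped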;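 note: wells of about 15 µL received 100 nL stock; the first replicate is given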
Target sequence (P08753 whole entry, looked up): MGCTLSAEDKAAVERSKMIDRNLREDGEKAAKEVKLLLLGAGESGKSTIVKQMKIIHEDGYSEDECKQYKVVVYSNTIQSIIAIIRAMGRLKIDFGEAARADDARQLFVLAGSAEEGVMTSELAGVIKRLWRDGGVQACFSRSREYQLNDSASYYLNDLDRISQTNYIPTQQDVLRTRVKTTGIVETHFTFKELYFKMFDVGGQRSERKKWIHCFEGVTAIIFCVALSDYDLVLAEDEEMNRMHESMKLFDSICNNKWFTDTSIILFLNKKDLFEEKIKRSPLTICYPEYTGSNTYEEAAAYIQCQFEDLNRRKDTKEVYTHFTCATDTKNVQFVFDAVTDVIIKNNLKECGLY
HCMV UL50-53 inh: inhibitors of HCMV UL50-UL53 interaction, biochemical, HTRF; HCMV UL50-UL53 nuclear egress complex (human cytomegalovirus); normalized percent inhibition; inhibition, % (no concentration beside the values); 190,000 compounds, 0.15% hits;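 active = both replicates at 50% or more, plus weaker picks with an unusually low signal ratio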;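 note: stock transfer was 100 nL into about 20 µL; 0% = negative control wells and 100% = wells with untagged competitor protein; inactives centre near -12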
Sa growth inh: S. aureus growth inhibition at 42 and 30 °C, primary screen, LtaS inhibitor project, RN4220, two temperatures | OD600, 20 h, 42 °C; stronger effect = lower value | relative growth, % (test concentration not listed) | 170,000 compounds, 0.53% hits;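 active = growth at 42 °C up to 50% and 20 or more points under that at 30 °C, or under 10% at both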;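 note: 300 nL library stock went into each well; scaled to the means of positive and negative controls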
Sa growth inh second temp: also measured in Sa growth inh; calls as there; relative growth, %; measured here: growth at 30 °C;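 optical density after 20 h as mean of two plates; 100% = untreated growth and lower means inhibition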
* hit, by the source's call; . = no result given; & = joins results of further samples.

Start of the data: the first 2 records, to show the layout:
SMILES	GIV-Gai inh	HCMV UL50-53 inh	Sa growth inh	Sa growth inh second temp
Clc1cccc(CNNc2nc(N3CCCCC3)nc(N3CCCCC3)n2)c1	99	-3	103	102
Cc1nn(-c2ccccc2)c2c1CN(C(=O)Nc1cccc(Br)c1)C(c1ccccc1)c1cccn1-2 (stereo not given)	104	7	.	.

Results, repeating the preview:
SMILES	GIV-Gai inh	HCMV UL50-53 inh	Sa growth inh	Sa growth inh second temp
Clc1cccc(CNNc2nc(N3CCCCC3)nc(N3CCCCC3)n2)c1	99	-3	103	102
Cc1nn(-c2ccccc2)c2c1CN(C(=O)Nc1cccc(Br)c1)C(c1ccccc1)c1cccn1-2 (stereo not given)	104	7	.	.
Cc1ccc(S(=O)(=O)Nc2cccc(-c3ccc(N4CCC(C)CC4)nn3)c2)s1	102	.	112	93
COc1cc(C)ccc1OCCSc1nc2ccc(NC(=O)c3ccco3)cc2s1	97	-19	91	63
Cc1ccc2c(=O)cc(C(=O)N(Cc3ccccc3)Cc3ccco3)oc2c1	105	-6	101	79
Clc1ncc(CN2CCc3ccccc3C2)s1	106	-18	.	.
O=S(=O)(c1ccccc1F)N1CCc2c([nH]c3ccccc23)C1c1ccc(Cl)cc1 (stereo not given)	105	-9	.	.
O=C(NC1CCS(=O)(=O)C1)c1ccccc1Cl (stereo not given)	.	-13	96	85
COC(=O)c1sccc1NC(=O)C1CCN(Cc2nc(-c3ccc(OC)c(OC)c3)no2)CC1	111	-3	.	.
Cc1ccc(CNC(=O)c2cc3sccc3n2C)cc1	102	6	100	100
CN(C)CCCn1c(=O)n(C)c(=O)c2[nH]cnc21	96	-20	.	.
Cn1c(-n2cccc2)c(-c2c(-c3ccc(F)cc3)[nH]c3c2c(=O)n(C)c(=O)n3C)c(=O)n(C)c1=O	106	-21	103	87
CNS(=O)(=O)c1ccc(C)c(-c2nnc3c4ccccc4c(C)nn23)c1	104	.	79	93
COc1cc(OC)cc(-c2cc3nc(C)c(CCC(=O)NCc4ccccc4)c(C)n3n2)c1	104	-32	116	86
CCCn1c(=O)c2ccccc2n2c(=O)n(CC(=O)Nc3ccc4c(c3)OCCO4)nc12	104	13	.	.
CC12CC3CC(C1)CC(C(=O)O)(C3)C2	.	7	120	105
COc1ccc(-n2nnc(-c3nsc(NC(=O)c4cccc(C)c4)n3)c2C)cc1OC	105	.	100	69
CCN(CC)c1ccc(NS(=O)(=O)c2ccc(N3C(=O)C(C)CS3(=O)=O)cc2)cc1 (stereo not given)	106	10	.	.
CS(=O)(=O)NN1C(=O)c2ccccc2NC12CCCCC2	105	.	114	97
COc1ccc2nc(SCC(=O)N3c4ccccc4C(C)=CC3(C)C)nc(C)c2c1	107	-25	.	.
Cc1c(C2=CCN(S(=O)(=O)c3ccc(Br)cc3)CC2)c2ccccc2n1CC(=O)N1CCCC1	106	-7	112	82
NC(=O)c1ccc(NC(=O)C2CCCCC2)cc1	101	-6	91	93
COc1ccccc1NC(=O)NC(Cc1ccccc1)Cc1ccccc1	98	-8	.	.
CC1C(=O)N(C)c2ccc(S(=O)(=O)N3CCOCC3)cc21 (stereo not given)	100	-7	93	77
CCSc1ncc2c(=O)n(CC(=O)Nc3ccc(F)cc3F)cnc2n1	101	-8	.	.

21 of the compounds above, with two lines to a compound:
Results follow in this order: GIV-Gai inh | HCMV UL50-53 inh | Sa growth inh | Sa growth inh second temp
Cc1ccc2c(=O)cc(C(=O)N(Cc3ccccc3)Cc3ccco3)oc2c1
→ 105 | -6 | 101 | 79
Clc1ncc(CN2CCc3ccccc3C2)s1
→ 106 | -18 | . | .
O=S(=O)(c1ccccc1F)N1CCc2c([nH]c3ccccc23)C1c1ccc(Cl)cc1 (stereo not given)
→ 105 | -9 | . | .
O=C(NC1CCS(=O)(=O)C1)c1ccccc1Cl (stereo not given)
→ . | -13 | 96 | 85
COC(=O)c1sccc1NC(=O)C1CCN(Cc2nc(-c3ccc(OC)c(OC)c3)no2)CC1
→ 111 | -3 | . | .
Cc1ccc(CNC(=O)c2cc3sccc3n2C)cc1
→ 102 | 6 | 100 | 100
CN(C)CCCn1c(=O)n(C)c(=O)c2[nH]cnc21
→ 96 | -20 | . | .
Cn1c(-n2cccc2)c(-c2c(-c3ccc(F)cc3)[nH]c3c2c(=O)n(C)c(=O)n3C)c(=O)n(C)c1=O
→ 106 | -21 | 103 | 87
CNS(=O)(=O)c1ccc(C)c(-c2nnc3c4ccccc4c(C)nn23)c1
→ 104 | . | 79 | 93
COc1cc(OC)cc(-c2cc3nc(C)c(CCC(=O)NCc4ccccc4)c(C)n3n2)c1
→ 104 | -32 | 116 | 86
CCCn1c(=O)c2ccccc2n2c(=O)n(CC(=O)Nc3ccc4c(c3)OCCO4)nc12
→ 104 | 13 | . | .
CC12CC3CC(C1)CC(C(=O)O)(C3)C2
→ . | 7 | 120 | 105
COc1ccc(-n2nnc(-c3nsc(NC(=O)c4cccc(C)c4)n3)c2C)cc1OC
→ 105 | . | 100 | 69
CCN(CC)c1ccc(NS(=O)(=O)c2ccc(N3C(=O)C(C)CS3(=O)=O)cc2)cc1 (stereo not given)
→ 106 | 10 | . | .
CS(=O)(=O)NN1C(=O)c2ccccc2NC12CCCCC2
→ 105 | . | 114 | 97
COc1ccc2nc(SCC(=O)N3c4ccccc4C(C)=CC3(C)C)nc(C)c2c1
→ 107 | -25 | . | .
Cc1c(C2=CCN(S(=O)(=O)c3ccc(Br)cc3)CC2)c2ccccc2n1CC(=O)N1CCCC1
→ 106 | -7 | 112 | 82
NC(=O)c1ccc(NC(=O)C2CCCCC2)cc1
→ 101 | -6 | 91 | 93
COc1ccccc1NC(=O)NC(Cc1ccccc1)Cc1ccccc1
→ 98 | -8 | . | .
CC1C(=O)N(C)c2ccc(S(=O)(=O)N3CCOCC3)cc21 (stereo not given)
→ 100 | -7 | 93 | 77
CCSc1ncc2c(=O)n(CC(=O)Nc3ccc(F)cc3F)cnc2n1
→ 101 | -8 | . | .

(further entries)
SMILES	GIV-Gai inh	HCMV UL50-53 inh	Sa growth inh	Sa growth inh second temp
COc1ccc(-n2cc(-c3ccc(OC)c(OC)c3)[nH]c2=O)cc1	107	-12	95	75
CCOC(=O)CSc1nc2c(sc(=S)n2-c2ccccc2C)c(=O)n1-c1ccc(F)cc1	103	.	112	92
Cc1ccc2n1CCNC2C(C)C (stereo not given)	110	-7	83	91
Cc1cc(N/C(=N\S(=O)(=O)c2ccc(F)cc2F)c2ccccc2)no1	.	-1	113	89
C#CCN1CCc2cc(OC)c(OC)cc2C1C (stereo not given)	104	10	100	107
NC(=NC(=O)CCn1c(=O)oc2ccccc21)c1cc(Cl)cc(Cl)c1	108	-2	102	97
COc1ccc(-c2noc(CCC(=O)NCc3ccc(OC)cc3OC)n2)cc1	106	-4	86	96
Cc1ccc(NC(=O)Cn2c(=O)n(-c3ccc(C)cc3)c(=O)c3ccc(C(=O)NCc4ccccc4Cl)cc32)cc1	104	-1	104	95
CCCCN=c1scc(-c2ccco2)n1/N=C/c1c[nH]c2ccccc12	.	-15	86	77
O=C(O)CCC(=O)NC1Cc2ccccc2C1	98	-10	139	87
Cc1oc(C(C)(C)C)cc1-c1cc(N)n(C)n1	106	4	108	103
COc1ccc(CCN=C(C)c2c(O)cc(C)oc2=O)cc1	.	-4	96	87
Cc1ccc2oc(=O)c3cc(C(=O)N4CCN(C)CC4)sc3c2c1	106	-67	103	91
COc1cccc(CNC(=O)c2ccc3c(Cl)c4c(nc3c2)CCCC4)c1	102	-38	101	88
O=C1c2ccccc2C(=O)N1c1cccc(-c2csc(=Nc3ccccc3)n2CCO)c1	.	-12	100	86
Cc1cccc(-c2csc3c(=O)[nH]cnc23)c1	97	5	.	.
CNC(=O)c1ccccc1Sc1ccccc1COC(C)=O	107	13	106	96
Cc1cc(NC(=O)CN(C)Cc2c(C)nn(-c3ccccc3)c2C)no1	.	16	95	97
Cn1nc(C(=O)N2CCOCC2)c2ccccc2c1=O	99	-11	103	92
COc1ccc(C(C)(C)C)cc1NC(=O)c1ccoc1C	102	3	115	112
O=C(COC(=O)C1(c2ccccc2F)CCCC1)NCc1ccccc1	.	-12	84	96
O=C(Nc1cccc(Cl)c1Cl)c1cc2nc(-c3ccc4c(c3)OCO4)cc(C(F)(F)F)n2n1	104	-3	87	85
COc1ccc(OC)c(Nc2nc3nonc3nc2N2CCCCC2)c1	96	-30	.	.
Fc1ccc2c(c1)c1nnc(-c3ccccc3)c-1cn2Cc1ccccc1	86	6	.	.
Nc1cc(C(=O)O)ccc1NCC1CCCO1 (stereo not given)	.	-19	105	83
SMILES	GIV-Gai inh	HCMV UL50-53 inh	Sa growth inh	Sa growth inh second temp
CCN(C(=O)CSc1nc2ccccc2n1CC(=O)Nc1ccccc1C)c1ccccc1	103	.	117	89
O=C(CSc1nnc(CNC(=O)c2ccco2)n1-c1cccc(C(F)(F)F)c1)Nc1ccc(F)cc1	101	-41	86	77
CCn1c(C)c(C)c2cc(C(=O)NCC(C)c3ccccc3)ccc21 (stereo not given)	113	.	117	96
NC(=O)CSc1nnc2n(Cc3ccccc3)c(=O)c3c(n12)-c1ccccc1CC31CCCCC1	104	-14	.	.
Cc1c(C(=O)NC2CCS(=O)(=O)C2)oc2ccccc12 (stereo not given)	.	-7	84	90
CC1CCCN(S(=O)(=O)c2ccc3c(c2)CCN3C(=O)CCC(=O)O)C1 (stereo not given)	98	-11	129	89
Cc1ccc(-c2csc3c(=O)n(C)c(SCC(N)=O)nc23)cc1	103	7	.	.
COC(=O)c1c(NC(=O)C(C)C)sc2c1CCC2	95	.	85	98
N#CC(C#N)=C1C=C(c2ccc(O)cc2)Oc2ccccc21	.	-11	108	91
COc1ccc(Nc2nc3nonc3nc2Nc2cccc(Br)c2)cc1	104	-10	.	.
COc1ccc2c(c1)C(C(C#N)C#N)c1c(nc(N)c(C#N)c1N)O2 (stereo not given)	103	-2	91	85
Cc1ccc(S(=O)(=O)c2nc(S(=O)(=O)C3CCCCC3)sc2N(C)C)cc1	.	-1	89	95
Cc1c2cnn(CC(=O)N3CCCCC3)c(=O)c2c(C)n1Cc1ccc(Cl)cc1	99	-8	111	85
COc1ccccc1CNC(=O)CCn1c(=O)c2ccccc2n(CC(=O)Nc2ccc(C)cc2)c1=O	106	-10	92	100
COCC(C)n1c(C)cc(C(=O)COC(=O)c2ccc(N3CCCC3=O)cc2)c1C (stereo not given)	.	-14	97	104
CCOC(=O)c1c(NC(=O)c2cc(-c3ccccc3)on2)sc2c1CCCC2	104	.	111	88
O=C(OCc1cccs1)c1ccc(-c2nc3ccccc3s2)s1	.	-33	103	96
CC(C)n1c(SCc2ccc(F)cc2)nc2c1c(=O)n(C)c(=O)n2C	107	-3	95	93
COc1ccc(NC(=S)N(Cc2ccco2)Cc2cc3cc(C)c(C)cc3[nH]c2=O)cc1	104	-14	112	89
COc1ccc(OC)c(Nc2nc3nonc3nc2N2CCCC(C)C2)c1 (stereo not given)	93	-13	.	.
COc1ccc2cc(C(N)=O)/c(=N\NC(=O)c3ccccc3)oc2c1	108	-70	94	82
O=C(NN1CCOCC1)C12CC3CC(CC(C3)C1)C2	97	-4	103	107
O=C(c1ccc(S(=O)(=O)N2CCCCCC2)cc1)N1CCN(c2ccccn2)CC1	99	-2	104	93
CCCCN(Cc1cc2cc(C)ccc2[nH]c1=O)C(=O)c1cccc(Cl)c1	108	11	117	90
Cc1cc(NC(=O)c2cc3c(s2)-c2c(C)cccc2OC3)no1	102	2	95	74
SMILES	GIV-Gai inh	HCMV UL50-53 inh	Sa growth inh	Sa growth inh second temp
CC(C)c1ccc(NC(=O)Cn2c(=O)oc3cccnc32)cc1	104	-4	104	81
CCN(c1ccccc1)c1cc(C)nc2ncnn12	107	-1	114	98
CC(NCc1ccc(C(=O)O)s1)c1ccccc1 (stereo not given)	99	.	105	96
CC(C)c1ccc(C2N=C(N)Nc3nc4ccccc4n32)cc1 (stereo not given)	104	-66	102	102
COc1ccc(CN(Cc2ccccc2)Cc2nnnn2C(C)(C)C)cc1	100	-3	101	72
COc1ccc(Nc2nnns2)cc1	102	0	83	79
CCOC(=O)C12CCC(C(=O)O)(CC1)CC2	.	-2	111	86
CC(NC(=O)C12CC3CC(CC(C3)C1)C2)C(=O)N(C)C (stereo not given)	106	3	109	111
CCc1ccc(NC(=O)Cn2c(SCc3cccc(C)c3)nc3ccncc32)cc1	97	-28	.	.
c1ccc(-c2ccccn2)nc1	97&106	2&-1	115	72
O=C(NCC1CCCO1)c1cc2cc(Br)ccc2oc1=O (stereo not given)	.	-92	102	87
COc1ccccc1N1CCN(c2nc(-c3cccnc3)nc3ccccc23)CC1	.	-8	89	87
C=C1Cn2c(nc3sc(C)c(C)c3c2=O)S1	101	-4	103	99
